# Assay outcomes: PubChem, several laboratories
# Mtb bLac sens – beta-lactam sensitization of Mtb H37Rv; M. tuberculosis H37Rv growth with meropenem, percent inhibition; hits of this screen are not shown here; inhibition, % at 25 µM; 330,000 tested, 0.27% active;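 active = about 74% or more and at least 40 points above the plate without the antibiotic, then above 30% in a dose series; inconclusive = first-round hits that could not be retested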;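 note: growth measured after seven days incubation then overnight dye step; 0% = bacteria only wells and 100% = bacteria with antibiotic; twin plates without the antibiotic show which effects depend on it; some results filed as inactive read as strong as hits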
# RecA intein inh – inhibitors of M. tuberculosis RecA intein splicing; cell-free RecA intein splicing, fluorescence; inhibition, %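 (about 9 µM by stock and volumes)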; 290,000 tested, 0.75% active; AID 2221; in the data active = inhibition above about 30%; inconclusive = no clear call, values can overlap the other calls;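 note: 0% = vehicle wells and 100% = reference inhibitor control wells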
# Target sequence (P9WHJ3 whole entry, looked up): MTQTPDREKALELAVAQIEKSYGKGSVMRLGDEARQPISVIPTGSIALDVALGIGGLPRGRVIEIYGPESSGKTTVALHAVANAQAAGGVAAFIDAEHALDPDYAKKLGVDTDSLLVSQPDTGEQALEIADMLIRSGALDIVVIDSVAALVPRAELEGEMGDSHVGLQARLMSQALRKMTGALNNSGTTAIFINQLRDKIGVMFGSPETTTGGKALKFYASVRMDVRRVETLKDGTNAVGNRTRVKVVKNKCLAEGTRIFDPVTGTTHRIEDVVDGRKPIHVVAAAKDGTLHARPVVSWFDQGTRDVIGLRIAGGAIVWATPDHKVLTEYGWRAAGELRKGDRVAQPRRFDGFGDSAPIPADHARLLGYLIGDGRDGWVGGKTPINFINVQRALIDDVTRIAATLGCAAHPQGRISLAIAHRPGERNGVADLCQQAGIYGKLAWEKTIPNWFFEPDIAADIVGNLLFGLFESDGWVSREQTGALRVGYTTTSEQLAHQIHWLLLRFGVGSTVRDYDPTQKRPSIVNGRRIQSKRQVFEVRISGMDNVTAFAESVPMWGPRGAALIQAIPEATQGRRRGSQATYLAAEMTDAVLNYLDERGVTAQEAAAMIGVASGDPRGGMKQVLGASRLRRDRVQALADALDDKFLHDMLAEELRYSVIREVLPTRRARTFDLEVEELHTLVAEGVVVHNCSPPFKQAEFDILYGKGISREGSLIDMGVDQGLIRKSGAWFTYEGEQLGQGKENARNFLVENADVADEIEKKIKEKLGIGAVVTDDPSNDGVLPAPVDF
# YopH PTP inh – YopH (Yersinia) phosphatase inhibition | AID 898 | fluorescence Ex485/Em525 | 140,000 tested, 0.16% active | inhibition, %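 (about 10 µM by stock and volumes)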;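 active = inhibition of 50% or more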;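 note: controls were vehicle for no effect and minimum signal wells for full effect; inactives centre near -20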
# Mtb growth – M. tuberculosis H37Rv growth inhibitors, H37Rv strain (AID 1626); M. tuberculosis H37Rv growth inhibition; higher % means a stronger effect; inhibition, % at 10 µM; hits with a dose series show IC50 in µM; 220,000 tested, 0.95% active;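 active = confirmed in a dose series; inconclusive = inhibition above 80% but not taken into the dose series; inactive = below 80% or under 30% at every dose of the series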;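 note: bacteria incubated seven days before Alamar blue readout; 0% = bacteria only wells and 100% = bacteria with antibiotic wells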
# Arbovirus inh – antivirals against arbovirus infection; inhibition, % at 10 µM; 200,000 tested, 0.37% active; arbovirus infection cell-based antiviral screen;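 active = inhibition from about 30%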;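 note: bluetongue infection of BSR cells; cell survival read as ATP light after 72 h; 0% = infected wells without compound and 100% = uninfected wells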
# Arbovirus inh repeat – recorded beside Arbovirus inh, whose call it bears; inhibition, %; measured here: 10K subset replicate screen; many hits read low in the repeat;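 first of two repeat runs on a subset; 0% = infected and 100% = uninfected wells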
# Numbers without * were called inactive; ? = inconclusive; / = no result given. Not all compounds are listed (hit frequency here may not be typical).
SMILES,Mtb bLac sens,RecA intein inh,YopH PTP inh,Mtb growth,Arbovirus inh,others
Cc1ccccc1C(=O)NNC(=O)C1CCN(C(=O)Nc2ccccc2)CC1,-11,-1.0,/,/,/,
O=C(Nc1ccc(N2CCCCC2)cc1)c1ccc2c(c1)OCCO2,-2,-0.6,-12,0%,9,
Cc1sc2nc(SCC(=O)NCCO)n(C)c(=O)c2c1C,-6,0.8,-6,-10%,-2,Arbovirus inh repeat=-3
NC(CCCCCP(=O)(c1ccccc1)c1ccccc1)C(=O)O (centres undefined),-4,0.6,/,-7%,/,
CCc1ccc(C2c3[nH]c4ccccc4c3CCN2C(=O)c2ccc(=O)n(C)n2)cc1 (centres undefined),19,4.7,/,37%,-20,
CC1CCN(C(=O)C2CCN(S(=O)(=O)c3cnc[nH]3)CC2)CC1,-4,-0.6,-13,2%,7,
Cc1c(C(=O)Nc2ccccc2)cn2c(nc3ccccc32)c1C#N,-5,-12,-10,3%,-3,
Cc1cc(C)nc(Nc2ccc(N3CCOCC3)cc2)n1,3,-6.0,-49,-3%,-6,
O=C(N/N=C/c1cc(Br)ccc1OC(=O)c1ccc(Br)cc1)c1ccncc1,100,2.8,/,/,/,
O=C(Nc1ccccc1C(=O)O)c1cc(S(=O)(=O)N2CCOCC2)cs1,1,0.9,/,-11%,9,

# Random excerpt: two records from the list
SMILES,Mtb bLac sens,RecA intein inh,YopH PTP inh,Mtb growth,Arbovirus inh,others
Cc1ccccc1C(=O)NNC(=O)C1CCN(C(=O)Nc2ccccc2)CC1,-11,-1.0,/,/,/,
Cc1c(C(=O)Nc2ccccc2)cn2c(nc3ccccc32)c1C#N,-5,-12,-10,3%,-3,

# (cont.)
SMILES,Mtb bLac sens,RecA intein inh,YopH PTP inh,Mtb growth,Arbovirus inh,others
COc1ccc(N(CC(=O)N/N=C(\C)CCc2ccccc2)S(=O)(=O)c2ccc(C)cc2)cc1,-6,-0.4,/,3%,/,
CC1CCCN(CCC(=O)Nc2ccc3c(c2)CCC3)C1 (centres undefined),8,-3.6,-16,-6%,1,
NC(=O)CN1C(=O)C(=O)N(Cc2ccccc2)C1=O,1,-2.0,/,/,/,
CN1C(=O)c2ccc(C(=O)NCc3ccccn3)cc2C1=O,-17,0.1,/,/,/,
Cc1ccc(C(=O)NC2CCN(CC(=O)Nc3cccc([N+](=O)[O-])c3)CC2)cc1,-10,-12,/,1%,-6,
O=C(CC1Oc2ccccc2NC1=O)NC1CC1 (centres undefined),9,-1.3,-38,/,4,Arbovirus inh repeat=-4
CC(Oc1ccccc1)C(=O)Nc1cccc(F)c1 (centres undefined),-2,-1.4,-10,-11%,3,
CCOC(=O)c1cn2nc(Oc3ccc(C(=O)OC)cc3)ccc2n1,-6,3.8,/,-2%,/,
CC(=O)NC(=S)Nc1cccc([N+](=O)[O-])c1,6,-1.0,/,1%,0,
CCN1C/C(=C\c2cccc(C)c2)c2nc3ccccc3c(C(=O)O)c2C1,/,/,-33,-4%,2,
O=C(c1ccccc1)N1N=C(c2ccccc2)CC1c1ccccc1O (centres undefined),2,3.4,/,22%,-5,
Nc1nonc1-n1nnc(C(=O)c2ccccc2)c1-c1ccccc1,-1,4.4,-12,4%,-3,
O=C(NCCc1ccc(C(F)(F)F)cc1)c1ccc(Cl)nc1,2,0.1,/,/,/,
CC1(C)NC(C)(C)c2nonc2/C1=N\O,-3,-5.0,-35,-4%,-2,Arbovirus inh repeat=-3
CN1CCN(c2ccc(-c3cccc(NC(=O)COc4ccccc4)c3)nn2)CC1,2,-1.3,/,/,/,
CCOC(=O)c1nnn2c1nc(N(CC)CC)c1ccccc12,-4,1.3,/,-5%,/,
CC(=O)Nc1ccc(C2NC(=S)N(c3ccccc3C(F)(F)F)C(C)=C2C(=O)N2CCOCC2)cc1 (centres undefined),-12,0.1,/,8%,6,
Cc1cc(/C=N/NC(=O)c2nn(C)cc2Cl)c(C)n1-c1cccc(Br)c1,11,0.2,-12,11%,-3,
O=C(N/N=C/C(Br)=C/c1ccccc1)C(O)c1ccccc1 (centres undefined),1,3.7,/,5%,/,
CSC1=C(C#N)C(c2ccccc2Cl)C(C(C)=O)=C(C)N1 (centres undefined),-1,-8.9,-14,6%,13,
[N-]=[N+]=NCCN1CCN(Cc2ccccc2)CCC1=O,-15,-6.0,/,/,/,
COc1ccc(C2(C(=O)NCc3ccccc3Cl)CCOCC2)cc1OC,-2,0.5,/,-4%,0,
CC1CCN(C(=O)COc2ccc(S(=O)(=O)N3CCOCC3)cc2)CC1,-9,5.1,/,/,/,
CC(C)NC(=O)C1CCCN(S(=O)(=O)c2ccc(-n3cnnn3)cc2)C1 (centres undefined),-21,-1.5,0,-3%,2,
COc1ccc(CN2CCC(Cc3ccccc3)CC2)c(C)c1C,-2,1.0,/,/,/,
Cc1c(C(=S)Nc2ccccc2)cnn1-c1ccccc1,2,-2.1,-49,/,8,
COc1ccc(NC(=O)c2ccc(C)cc2)c(OC)c1,5,0.3,-14,0%,-1,
CC(=O)Nc1ncc(N=Nc2cccc(C(F)(F)F)c2)s1,2,0.9,/,/,/,
CN(c1ccc(OCC(=O)OCC(=O)Nc2ccc(F)cc2)cc1)S(=O)(=O)c1ccc(Cl)cc1,4,1.0,-23,-6%,-2,
CC(=O)c1cccc(N2C(=NC(=O)C3CCCCC3)SC3CS(=O)(=O)CC32)c1 (centres undefined),0,-5.6,/,/,/,
CC(C)N(Cc1nc(-c2ccccc2)no1)C(=O)Cc1ccccc1,1,0.5,-33,-2%,3,Arbovirus inh repeat=-1
CCCCSCCCNC(=O)CS(=O)Cc1nc(-c2cccc(C)c2)oc1C (centres undefined),?,1.7,-26,-2%,-6,
O=C1NN(c2ccccc2)C(=O)/C1=C/c1cccs1,36,-10,-31,-3%,-27,
O=C(Nc1ccc2c(c1)OCCO2)c1cc2ccccc2o1,48,/,/,-11%,-17,
COc1ccc(CNC(=O)CSc2nnc(Cn3nnc4ccccc43)n2C)cc1,-1,0.0,-17,-10%,6,
Cc1ccccc1-n1c(Cn2c(=O)sc3ccccc32)nnc1SCC(=O)NCC1CCCO1 (centres undefined),-2,/,-57,-9%,2,Arbovirus inh repeat=-3
CCN(CC)S(=O)(=O)c1ccc(NC(=O)c2cnc(C)cn2)cc1,-1,0.2,/,/,/,
O=C1CCCC(=O)N1c1ccc(O)cc1,5,-2.0,/,-9%,2,
CC(=O)Oc1ccc(C(=O)Nc2cc(NC(=O)c3ccc(OC(C)=O)cc3)cc(C(=O)NC(C)(C)C)c2)cc1,5,30,-19,-2%,-3,
COC(=O)C(Cc1ccccc1)NC(=O)CSc1nc(N)cc(=O)[nH]1 (centres undefined),7,-4.4,-33,2%,3,
Cc1cc(C)cc(N2CC(C(=O)O)CC2=O)c1 (centres undefined),6,1.7,-50,-1%,1,
Cc1ccc(C(=O)N2CCCC(CCC(=O)N3CCN(c4ccccn4)CC3)C2)cc1C (centres undefined),-1,-6.4,/,/,/,
COCC1CCCCN1C(=O)c1ccc(OC2CCN(Cc3ccccn3)CC2)cc1 (centres undefined),?,2.2,/,/,/,
Cc1ncc(CO)c2cc(C(N)=O)c(=Nc3ccccc3)oc12,-6,3.0,-19,0%,-4,
Cc1ccc(C)c(Cn2c(CO)nc3ccccc32)c1,-5,1.0,5,0%,4,
COc1ccc(-c2cc(-c3ccccc3)nc(SCC(=O)Nc3nccs3)c2C#N)cc1,3,-0.4,-17,1%,-20,
CCOC(=O)c1c(NC(=O)C2C3C=CC(C3)C2C(=O)O)sc2c1CC(C)CC2 (centres undefined),-3,-0.1,/,6%,-1,
Cn1nnnc1SCC(=O)Nc1ccccc1Cc1ccccc1,-3,0.1,-41,2%,7,
Cc1ccc(-c2csc(NC(=O)N3CCOCC3)n2)cc1,2,0.9,/,2%,5,
N/C(=N\OC(=O)c1ccc(Br)o1)c1ccccn1,6,0.6,/,6%,1,

# Further entries follow:
SMILES,Mtb bLac sens,RecA intein inh,YopH PTP inh,Mtb growth,Arbovirus inh,others
Cc1ccc(-n2c(C)cc(C(=O)COC(=O)C3=NNC(=O)CC3)c2C)cc1,3,4.7,-7,3%,3,
O=C(CNCC1CCCO1)Nc1ccccc1N1CCCCCC1 (centres undefined),-4,-1.8,-10,-8%,7,
COc1ccc(Cn2nnnc2CN2CCOCC2)cc1,0,1.7,-8,5%,-2,
CCc1nnc(N/N=C/c2c(C)[nH]c3ccccc23)n1N,2,-3.4,/,2%,-2,
N#C/C(=C(/O)COC(=O)CCCNC(=O)c1ccc(Cl)cc1)c1nc2ccccc2[nH]1,68,0.0,-8,-2%,-34,
O=C1NC2=C(C(=O)CCC2)C(c2ccccc2Cl)N1 (centres undefined),5,-1.6,/,/,/,
COc1ccc(CN(C)C(=O)CNC(=O)Cc2cccc3ccccc23)c(OC)c1OC,-5,-0.4,/,/,/,
CCCc1ccc(OCC(=O)Nc2cc(S(=O)(=O)CC)ccc2O)cc1,6,-0.7,/,-5%,15,
COc1cccc(NC(=O)C2C(c3ccccc3)C2(Cl)Cl)c1 (centres undefined),7,8.3,/,/,/,
C=C(C)C1CC=C(C)/C(=N/NC(=O)c2cccc([N+](=O)[O-])c2)C1 (centres undefined),14,1.8,-38,-3%,1,
Cc1[nH]c2ccc(C(=O)N3CCN(c4ccccc4Cl)CC3)cc2c1C,-4,1.6,/,/,/,
Cc1ncc([N+](=O)[O-])n1CCOC(=O)Nc1ccc([N+](=O)[O-])cc1,4,2.5,-15,-1%,-2,
Cc1cccc(N2C(=O)c3cccc4cccc(c34)C2=O)c1,1,5.1,/,/,/,
c1ccc2c(NCC3CCCO3)nc(N3CCCCC3)nc2c1 (centres undefined),-5,-2.2,/,1%,3,
CSc1ccccc1OCc1cc(C(=O)NCCC2=CCCCC2)no1,-6,1.2,/,/,/,
Cc1cc(OCc2cc(C(=O)O)oc2C)c2c3c(c(=O)oc2c1)CCCC3,63,-1.9,-24,1%,1,
COc1ccc(C2CC(O)(c3ccccc3)Oc3cc(OC)ccc32)cc1 (centres undefined),8,8.2,/,3%,/,
Cc1ccc(OCC(=O)Nc2cccc(S(=O)(=O)N3CCCCCC3)c2)cc1C,-11,8.0,/,/,/,
CCOc1ccccc1NC(=O)CCN(c1ccc(C)cc1)S(=O)(=O)c1ccccc1,?,7.7,-7,5%,-5,
O=C(Nc1cccc(NC(=O)c2ccc(Cl)cc2)n1)c1ccc(Cl)cc1,-3,0.8,/,/,/,
CCCN(CC(=O)Nc1ccccc1C)C(=O)C1CCN(C(=O)Nc2ccccc2)CC1,-6,-0.3,/,/,/,
Cc1ccc(C(=O)Nc2ccncc2)cc1[N+](=O)[O-],1,-0.1,/,/,/,
Cc1nnc(SCCn2c(N(C)Cc3ccccc3)nc3c2c(=O)n(C)c(=O)n3C)s1,-2,-0.4,-25,-3%,/,
COc1ccc(OC)c(N/C=C2/CCCCC2=O)c1,-3,-7.0,-1,-3%,-11,
COC(=O)Cn1c(=O)c(C(=O)CCl)c(N)n(Cc2ccccc2)c1=O,66,1.3,/,-2%,/,
COc1ccc(C(=O)C2CCCN(C(=O)c3cccc(Cl)c3F)C2)cc1OC (centres undefined),3,0.2,/,/,/,
Cc1ccc2c(COC(=O)c3ccccc3Cl)cc(=O)oc2c1,-3,-1.8,/,/,/,
CCOC(=O)c1cc(-c2ccc(OC(F)F)cc2)nc2c1c(=O)[nH]c(=O)n2C,0,-2.2,-21,-1%,5,
CCOP(=O)(OCC)C(NC(=O)c1ccc(OC)c(OC)c1)c1ccccc1 (centres undefined),1,6.7,/,6%,4,
CSc1ncccc1C(=O)OCC(=O)NC(C)(C)C,-2,-1.7,/,-5%,29,
O=c1c2ccc(Cl)cc2[nH]c(=S)n1-c1cccnc1,-8,-0.1,/,2%,-5,
CN(c1ncnc(N)c1[N+](=O)[O-])C1CCCCC1,6,0.5,/,/,/,
Cc1oc2c(CN3CCCCC3)c(O)ccc2c(=O)c1-c1ccc(Cl)cc1,5,1.1,/,/,/,
C[C@]12C=CC(=O)C=C1CC[C@H]1[C@@H]3C[C@@H](O)[C@](O)(C(=O)CO)[C@@]3(C)C[C@H](O)[C@@]12F,-2,-4.0,-18,-11%,20,

# No new results follow: an excerpt of the list.
SMILES,Mtb bLac sens,RecA intein inh,YopH PTP inh,Mtb growth,Arbovirus inh,others
CCOP(=O)(OCC)C(NC(=O)c1ccc(OC)c(OC)c1)c1ccccc1 (centres undefined),1,6.7,/,6%,4,
CSc1ncccc1C(=O)OCC(=O)NC(C)(C)C,-2,-1.7,/,-5%,29,
O=c1c2ccc(Cl)cc2[nH]c(=S)n1-c1cccnc1,-8,-0.1,/,2%,-5,

# Of the compounds above, these have a furan ring, fused or not:
SMILES,Mtb bLac sens,RecA intein inh,YopH PTP inh,Mtb growth,Arbovirus inh,others
O=C(Nc1ccc2c(c1)OCCO2)c1cc2ccccc2o1,48,/,/,-11%,-17,
N/C(=N\OC(=O)c1ccc(Br)o1)c1ccccn1,6,0.6,/,6%,1,
Cc1cc(OCc2cc(C(=O)O)oc2C)c2c3c(c(=O)oc2c1)CCCC3,63,-1.9,-24,1%,1,
